# Assay outcomes (PubChem)
# TRPML1 blocker – blocks the human TRPML1 channel. Q9GZU1. TRPML1-inducible cells, Ca2+ dye fluorescence, FDSS; stronger effect = lower value; inhibition of EC80 agonist-evoked calcium signal. activity change, negative = inhibition, % (no concentration beside the values). 0.02% of 390,000 active; in the data active means activity change below about -50%; inconclusive means about -30% to -50%; inactive means above about -30%;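 further: stimulus is agonist 54-4 at its EC80 concentration; on the % scale 0 is the no-effect control and ±100 the full control effect; compound concentration not given in the record; the text of the record puts the active cut at -80%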
#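 Calcium fluorescence in TRPML1-DL cells induced overnight with Tet: a 110 s read after compound pin addition, then a 110 s antagonist read after challenge with 54-4 at 4 uM final (EC80).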
# TRPV1 PAM – human TRPV1 potentiation; TRPV1-expressing cells, Fluo-8 calcium influx, capsaicin EC20 potentiation; host cell line not named in the record; control for the full effect not named in the record; potentiation, % at 8.33 µM; 0.02% of 320,000 active; active means potentiation above 80%; inconclusive means 30% to 80%; inactive means below 30%; further: 0% is about no effect
# Target sequence (Q8NER1 whole entry, looked up): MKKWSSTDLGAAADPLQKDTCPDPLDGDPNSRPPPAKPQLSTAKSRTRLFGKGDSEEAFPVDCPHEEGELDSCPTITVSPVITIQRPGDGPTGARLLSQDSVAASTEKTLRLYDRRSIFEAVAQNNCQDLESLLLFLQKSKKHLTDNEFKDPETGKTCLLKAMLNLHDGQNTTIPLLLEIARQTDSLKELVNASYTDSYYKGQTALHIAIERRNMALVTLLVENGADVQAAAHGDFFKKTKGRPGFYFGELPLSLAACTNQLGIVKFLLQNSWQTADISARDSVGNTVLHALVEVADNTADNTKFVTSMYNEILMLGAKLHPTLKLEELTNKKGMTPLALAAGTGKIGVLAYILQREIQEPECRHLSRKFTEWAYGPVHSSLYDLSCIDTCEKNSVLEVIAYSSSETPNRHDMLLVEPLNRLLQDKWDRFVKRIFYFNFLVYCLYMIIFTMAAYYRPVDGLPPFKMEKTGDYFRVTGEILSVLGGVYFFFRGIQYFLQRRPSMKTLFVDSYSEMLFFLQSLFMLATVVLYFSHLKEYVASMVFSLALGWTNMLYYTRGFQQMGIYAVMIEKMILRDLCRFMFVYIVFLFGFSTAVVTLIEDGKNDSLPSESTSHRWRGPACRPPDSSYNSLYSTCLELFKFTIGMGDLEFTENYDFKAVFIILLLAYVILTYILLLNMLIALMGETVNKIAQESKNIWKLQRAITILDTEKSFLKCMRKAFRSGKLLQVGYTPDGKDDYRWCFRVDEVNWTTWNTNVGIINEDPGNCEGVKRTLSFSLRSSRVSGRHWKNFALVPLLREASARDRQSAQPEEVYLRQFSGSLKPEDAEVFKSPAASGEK
#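 Cells expressing TRPV1 were dye-loaded with Fluo-8 and read kinetically: 10 s baseline, 3 min after compound (agonist portion), then 2 min after EC20 capsaicin (allosteric enhancer portion). Calcium-bound dye fluorescence at 480/520 nm.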
# Sfp PPTase inh – blocks B. subtilis Sfp PPTase activity; 3.5% of 310,000 active; Q9F4F7; AID 1490; Potency, µM, inactives show max response, negative = inhibition, usual class: inhibitors; Biochemical Sfp PPTase activity, qHTS; active means well fitted inhibition curve with a large enough effect; inconclusive means small, poorly fitted or top-dose-only effect, or another doubt; inactive means no such curve, though single readings can be large or run the other way;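 further: the enzyme is Sfp with the accession as filed and its product quenches rhodamine fluorescence; potency means the concentration at half of the fitted maximal effect; 0% = enzyme reaction without inhibitor and -100% = no enzyme wells; top concentration of the series not given in the record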
#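 Sfp 15 nM + cpd, 15 min RT; start w/ rhodamine-CoA 5 uM, BHQ-2-YbbR 12.5 uM (final); 50 mM Hepes pH 7.6, 10 mM MgCl2, 0.01% NP-40, 0.01% BSA; read 525/598 nm at 0 and 30 min.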
# TRPML1 agonist – agonists of human TRPML1 channel | Q9GZU1 | TRPML1-expressing cells, Ca2+ dye fluorescence, FDSS; host cell line not named in the record; reference of the full effect not given here | activation, % (test concentration not listed) | 0.12% of 410,000 active | AID 624414; in the data active = activation above about 50%; inconclusive = about 30% to 50%; inactive = below about 30%; further: 0% is about no effect; the text of the record puts the active cut at 80%
#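 Kinetic FDSS Ca2+ read in Tet-induced TRPML1-DL cells (ABD Ca8 dye plus quencher, 45-90 min RT loading): baseline, then compound, then 110 s agonist window; EC80 agonist 54-4 at 4uM final added afterwards for a 110 s antagonist window.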
# Menin MLL FP FL – inhibitors of human menin-MLL interaction, wild-type MLL peptide; Fluorescence polarization, fluorescein-MLL peptide displacement from menin; FP activity change, % at 61.4 µM; 290,000 tested, under 10 active; inconclusive = falling polarisation curve, or a change in total fluorescence; inactive = total fluorescence flat and polarisation flat or rising; no compound was filed as active; the % refers to the polarisation; negative = inhibition;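 further: % of control where 0% means no effect; inhibitors lower the polarisation; unlabelled MLL peptide was the positive control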
# ClpP mod – qHTS Assay for Activators of ClpP; ATP-dependent Clp protease proteolytic subunit (Bacillus subtilis (strain 168)), P80244; purified B. subtilis ClpP, FRET peptide cleavage, 20 min; Potency, µM (titrated, usually from 57.5 µM), inactives show at the highest dose activity change, negative = active; 1.9% of 340,000 active; active = well fitted falling curve with a large enough effect; inconclusive = small, poorly fitted or top-dose-only effect; inactive = no such curve, though single readings can be large or run the other way; further: potency means the concentration at half of the fitted maximal effect; the source files actives as falling curves though it sought activators and does not explain the sign; nearly all actives have a fitted effect of over 65% in size; many hits overshoot -100%
# Target sequence (P80244 whole entry, looked up): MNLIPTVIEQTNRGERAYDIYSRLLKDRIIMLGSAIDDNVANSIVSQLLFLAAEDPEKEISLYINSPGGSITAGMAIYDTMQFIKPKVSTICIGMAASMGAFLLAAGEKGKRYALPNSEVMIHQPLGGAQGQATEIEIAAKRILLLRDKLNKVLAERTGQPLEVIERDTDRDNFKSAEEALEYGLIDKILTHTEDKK
#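 Purified B. subtilis ClpP, 10 microg/mL final in Tris/HCl pH8 with KCl, BSA, glycerol and Tween-20, cleaved an Abz/nitrotyrosine-quenched decapeptide. Fluorescence (ex 320, em 430) was read at 0 and 20 min at room temperature. Delta was normalized to 5.8 microM ADEP and DMSO/no-enzyme controls.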
# PINK1 expr mod – PINK1 expression modulation | PINK1 immunofluorescence, high-content cytometry, 24 h | Potency, µM (titrated, usually from 76.6 µM), for the others: top-dose activation (PINK1 increase), hits mostly activators | 0.2% of 410,000 active | AID 624263; active = well fitted activation curve with a large enough effect; inconclusive = small, poorly fitted or top-dose-only effect; inactive = flat fitted curve, though single readings scatter; cell line not stated here;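 further: potency means the concentration at half of the fitted maximal effect; % of control where 0% means no effect; nearly all actives have a fitted effect of over 65% in size; a mitochondrial uncoupler was the plate control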
#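 PINK1 protein, normally rapidly degraded, was detected by immunofluorescence after 24 hour compound treatment of a stable cell line. Titration data (5 concentrations) came from laser-scanning cytometry, with CCCP-treated wells as controls.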
# * hit, by the source's call; ? = inconclusive; / = no result given; & = joins results of further samples; [ ] = remark or other dose. Hits appear at their usual frequency; about 4.4% have a hit in one of these screens.
SMILES,TRPML1 blocker,TRPV1 PAM,Sfp PPTase inh,TRPML1 agonist,Menin MLL FP FL,ClpP mod,PINK1 expr mod
OC[C@H](O)[C@H](O)[C@@H](O)[C@@H](O)[C@@H]1SC(c2ccccc2)=NN1c1ccccc1,-6,-2,-4%,-0.8,2.4,/,?
Cc1ncc(CO)c(/C=N/NC(=O)c2ccccc2Br)c1O,-6,-5,16%,1.9,6.3,/,-1.3%
Cc1ccc(C(=O)Nc2ccc3c(c2)OCCO3)c(C)c1,7,-26,12%,1.4,-0.5,/,-2.2%
C=CCNC(=O)/C(=C\c1ccco1)NC(=O)c1ccco1,3,2,12%,-1.1,-0.4,0.5%,0.1%
CN(CC(=O)Nc1ccccc1Cl)CC(=O)N(C)c1c(N)n(Cc2ccccc2)c(=O)[nH]c1=O,-8,/,/,1.1,/,-0.5%,0.6%
CCSc1nc(=O)c2c(n1C)NC(=O)CC2c1ccc(O)cc1OC (configuration not stated),3,/,/,-0.1,/,-0.1%,2.3%
Cc1ccc(Nc2cc(C)nc3nnnn23)cc1,-4,1,18%,-0.2,0.8,-2.5%,-0.8%
CCC(C)[C@H](NC(=O)[C@H](Cc1ccccc1)n1c(=O)[nH]c2ccccc2c1=O)C(=O)N1CCC[C@@H]1C(=O)O (some centres not stated),/,6,16%,/,?,-20%,0.7%
CCOc1ccc(CN(CCC#N)C(=S)NC(=O)c2ccccc2)cc1,49,-4,-3%,1.2,2.0,0.8%,0.2%
O=C(c1ccc(Cl)cc1)N(Cc1ccccc1F)N1C(=O)CCCC1=O,-1,3,12%,-0.5,1.0,/,2.6%
CCNS(=O)(=O)c1ccc2c(c1)n(C)c(=O)n2C,21,3,10%,0.5,-0.5,-0.6%,1.7%[38.3 µM]
C[C@@H]1CN([C@@H](C)CO)C(=O)CCCn2nncc2CO[C@@H]1CN(C)C(=O)CCC(F)(F)F,15,/,/,0.2,/,0.4%,3.3%
O=C(Cn1c(=O)nc(-c2ccccc2)c2cc(Cl)ccc21)NCCc1ccccc1,6,/,/,0.6,/,0.2%,1.7%
Cc1cccc2cc(C#N)c(SCC#N)nc12,4,-6,-1%,1.1,4.1,-9.1%,0.0%
C/C(=N\NC(=O)c1ccc(N2CCCC2=O)cc1)c1ccc(O)cc1O,-10,0,3%,-0.2,/,-5.2%,1.0%
CCn1nc(C)c(C2C(C#N)=C(N)OC3=C2C(=O)CC(C)(C)C3)c1C (configuration not stated),-9,-2,-2%,-0.5,3.8,0.6%,-1.9%
Cc1ccc(OCC(=O)Nc2ccc(N3CCN(C(=O)c4ccc(C)cc4)CC3)cc2)cc1,-5,9,10%,2.7,1.4,/,4.1%
COc1ccc(OC)c(S(=O)(=O)N2CCCC(C(=O)NCCN3CCOCC3)C2)c1 (configuration not stated),5,-1,19%,0.2,-5.7,/,-1.6%
COc1ccc(CCNC(=O)c2c(O)c3c([nH]c2=O)CCCC3)cc1OC,-3,/,/,-0.5,/,-0.2%,6.2%
COc1ccc(-c2noc(-c3ccc(N4CCCCC4)c([N+](=O)[O-])c3)n2)cc1,-12,/,/,0.0,/,-1.4%,0.6%
Cc1nn(Cc2cccc(F)c2)c(C)c1NC(=O)c1ccc(COc2ccccc2Cl)cc1,-4,5,13%,1.6,?,1.4%,-3.9%[38.3 µM]
NNC(=O)Cn1nc2n(c1=O)-c1ccccc1SC2,2,9,9%,0.0,0.9,/,-1.0%
CN(C)c1ccc(NC(=O)CSC2=Nc3ccccc3C3=NC(CC(=O)NCc4ccccc4)C(=O)N23)cc1 (configuration not stated),-21,/,/,-0.1,/,3.3%,0.5%
COc1ccc(-n2c(SCC(=O)O)nc3sc4c(c3c2=O)CCC4)cc1,21,3,-2%,0.6,1.8,/,-1.7%
COc1ccc(-n2nc3c(c2NC(=O)COc2ccccc2)CS(=O)C3)cc1 (configuration not stated),-6,-6,15%,-0.5,/,-1.8%,0.0%
CCOC(=O)C1CCN(C(=O)Cn2nc(C)n3c(cc4cc(F)ccc43)c2=O)CC1,11&-8,15,9%,-0.6&-1.0,-0.5,3.7%&4.5%,3.0%&0.9%
Cc1cc(C(=O)Nc2ccc(Br)cc2)c2ccccc2n1,13,-37,-14%,-0.1,-1.7,0.2%,8.2%
O=C(CSc1nccn(-c2ccc(Br)cc2)c1=O)NCc1ccccc1,10,7,/,-0.5,/,-8.2%,6.2%
Cn1cccc1C(=O)NC(=O)COC(=O)c1ccc(S(C)(=O)=O)c([N+](=O)[O-])c1,-13,/,/,-0.6&0.1,/,-8.8%,1.1%&-3.9%
CCCC(=O)Nc1ccc(Cl)c(NC(=O)CC)c1,-3,10,-6%,3.3,-3.4,1.0%,-1.5%
CC1CCN(CC(O)COc2ccc(OCC(O)CN3CCC(C)CC3)cc2)CC1 (configuration not stated),-8,6,9%,0.1,-5.3,1.4%,-1.9%
Cc1nn(CC(=O)O)c(C)c1NC(=O)c1cccs1,-13,?,6%,-0.2,/,3.3%,0.0%
CCN(CC)C(C)C(=O)NCC1(c2ccccc2)CCOCC1 (configuration not stated),-5,1,12%,-0.1,5.5,1.1%,2.2%
NCCCC[C@@H](C(=O)N1CCNCC1)n1cc([C@@H](N)CC(N)=O)nn1,-2,-9,/,-0.2,/,-0.7%,-0.5%
O=C(Nc1ccc(-c2cn3ccccc3n2)cc1)c1ccc(Cl)cc1,-10,28,-11%,1.1,4.2,76%,-1.3%
CC(=O)NC1C(O)OC(CO)C(O)C1O (configuration not stated),12,-5,/,0.0,/,-1.6%,0.7%
C[C@H]1CN([C@@H](C)CO)C(=O)CCCn2cc(nn2)CO[C@@H]1CN(C)S(=O)(=O)c1ccccc1C#N,-12,/,/,-0.3,/,0.6%,0.2%
CNC(=S)N1N=C(c2ccccc2)CC1c1ccc(Br)cc1 (configuration not stated),5,-1,10%,0.2,2.3,1.0%,-27%[38.3 µM]
CC(=O)NC1CC2CCCC(C1)N2S(=O)(=O)c1cccc(F)c1 (configuration not stated),5,-26,-12%,-0.6,1.3,0.0%,0.2%
CSc1ccc(Cl)c(C(=O)N(C)CC(=O)Nc2ccc(N3CCOCC3)cc2)c1,-10,8,/,-0.5,/,-0.6%,0.5%
Cc1cc(C)c2ccc(C(=O)O)nc2c1O,16,5,20%,6.0,2.0,0.6%,-0.1%
O=C(CSC(=S)N1CCCC1)NCC(=O)Nc1ccc(F)c(F)c1,6,6,1%,1.2,/,-2.3%,0.1%
O=C(Nc1ccccc1)Nc1ccc(Br)c(Cl)c1,9,-7,28%,0.4,2.4,0.7%,?
O=C(NNc1c(F)c(F)cc(F)c1F)c1cc2ccccc2oc1=O,9,-2,8%,0.9,-8.5,/,2.0%
Cc1oc(-c2cccc(Cl)c2)nc1CS(=O)(=O)CC(=O)NCCCN1CCOCC1,-12,0,1%,0.0,-0.9,-7.7%,0.4%
CSc1nc(S(=O)(=O)c2ccc(C)cc2)c(N2CCOCC2)s1,-1,/,/,-0.7,/,-6.1%,1.6%
COc1ccc(CCNC(=O)COC(=O)c2cccn2C)cc1,-2,/,/,0.4,/,/,-1.9%
CN(Cc1ccccc1)C(=O)c1nc2ccccn2c1CNCCCOc1cccnc1,41,6,17%,-0.6,0.0,3.1%,0.6%
CCC(=O)c1cn(CC(=O)Nc2cc(C)ccc2C)c2ccccc12,23,-12,?,-1.3,-0.2,1.1%,8.0%
Cn1c2c(c(=O)n(C)c1=O)C(c1ccccc1[N+](=O)[O-])CC(=O)N2 (configuration not stated),-8,/,/,-1.4,/,-17%,-0.2%
COc1cccc(Nc2nc3ccc(C(=O)c4ccccc4)cc3n3cnnc23)c1,22,-1,10%,1.6,4.2,28%,6.7%
COc1ccc(C(=O)NC2CCN(CC(=O)NCc3ccccc3F)CC2)cc1,0,9,13%,0.5,1.1,/,-0.3%
CCN(c1ccccc1)S(=O)(=O)c1ccc(OC)c(NC(=O)CNCC(C)O)c1 (configuration not stated),12,-2,?,0.6,6.2,-17%,7.4%
Cc1nc2c3cccnc3nn2c(C)c1CCC(=O)NCc1ccccc1Cl,-9,/,/,-0.2,/,4.8%,0.8%
CN(Cc1ccccc1)S(=O)(=O)c1ccc(OCC(=O)NCc2ccccn2)cc1,33,-11,16%,-0.6,2.1,/,2.5%
O=C(NC1CCCCC1)C(c1cccnc1)N(C(=O)c1ccc(Cl)nc1)C1CCCCC1 (configuration not stated),-18,-5,-8%,-1.1,-0.9,-0.4%,1.3%
O=C(CCN1C(=O)C2CC=C(Cl)CC2C1=O)Nc1ccccc1O (configuration not stated),-2,0,5%,4.9,1.8,-0.5%,1.4%
O=c1[nH]n2c(=O)c3c([nH]c2c1N=Nc1cccc(Cl)c1)CCC3,5,15,?,1.6,?,-2.2%,12%
Cc1csc(SCC(=O)Nc2nncs2)n1,0,6,15%,0.4,-0.5,/,-3.3%
Nc1ccc2nc(-c3cccc(-c4nc5ccc(N)cc5[nH]4)c3)[nH]c2c1,16,15,-16%,-0.4,-1.1,/,1.1%
CC(C)n1ncc2c(C(=O)N3CCN(c4ccc(F)cc4)CC3)cc(-c3ccccc3)nc21,-1,14,/,1.5,/,-6.5%,-0.5%
Cc1nc2ccc(Br)cc2c(-c2ccccc2)c1C(=O)O,1,14,6%,-0.5,-0.9,/,-1.1%
COc1ccc(/C=C2\SC(=S)N(CCCC(=O)N3CCOCC3)C2=O)cc1,-5,/,/,0.2,/,4.4%,1.4%

# 3 entries out of the list, sorted by length of the SMILES, low to high.
SMILES,TRPML1 blocker,TRPV1 PAM,Sfp PPTase inh,TRPML1 agonist,Menin MLL FP FL,ClpP mod,PINK1 expr mod
COc1ccc(CCNC(=O)COC(=O)c2cccn2C)cc1,-2,/,/,0.4,/,/,-1.9%
Cc1nc2ccc(Br)cc2c(-c2ccccc2)c1C(=O)O,1,14,6%,-0.5,-0.9,/,-1.1%
COc1ccc(/C=C2\SC(=S)N(CCCC(=O)N3CCOCC3)C2=O)cc1,-5,/,/,0.2,/,4.4%,1.4%
